eIF4H inh = human eIF4H binding inhibitors, primary screen, translation initiation inhibitor project, biochemical, uHTS, fluorescence polarization; Eukaryotic translation initiation factor 4H (Homo sapiens), Q15056; eIF4H fluorescence polarization binding assay; inhibition, % at 35 µM; 290,000 tested, 0.94% active; AID 2012, 2009;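 active means 50% or more with normal probe brightness, or confirmed in later tests; inconclusive means above 50% with abnormal brightness, or retests that disagree; inactive means below 50% or failed in later tests; about a fifth of its hits are not listed in these tables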;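 further: calls also rest on retests at 20 µM and on dose response follow-up; 0% = protein and probe with vehicle and 100% = probe without protein; strong numbers were not always called active; many hits fall short of the cut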
Rce1 inhib = yeast Rce1p protease inhibitors, primary screen, biochemical, fluorescence, cell-free homogeneous. CAAX prenyl protease 2 (Saccharomyces cerevisiae (strain ATCC 204508 / S288c)), Q03530. yeast membranes, quenched prenylated peptide cleavage fluorescence. calls only. 290,000 tested, 0.27% active. AID 2563, 2010;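 active means fall in fluorescence gain of 50% or more versus controls, with final raw signal at or below 3038400; inconclusive means same 50% fall but final raw signal above 3038400; inactive means fall in fluorescence gain under 50%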;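 further: plate controls were neutral control wells for no effect and wells lacking membranes for full effect; tested at 10 µM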
Target sequence (Q03530 whole entry, looked up): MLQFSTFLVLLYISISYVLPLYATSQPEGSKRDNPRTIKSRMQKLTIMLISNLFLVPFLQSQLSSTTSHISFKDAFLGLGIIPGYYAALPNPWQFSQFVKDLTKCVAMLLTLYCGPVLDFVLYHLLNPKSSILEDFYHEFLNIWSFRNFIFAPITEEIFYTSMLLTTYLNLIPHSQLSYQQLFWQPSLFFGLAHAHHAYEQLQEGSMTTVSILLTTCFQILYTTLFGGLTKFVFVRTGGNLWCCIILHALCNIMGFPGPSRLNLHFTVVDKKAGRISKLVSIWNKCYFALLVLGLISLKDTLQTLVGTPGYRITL
MT1-MMP act inh = blockers of MT1-MMP proenzyme processing, primary screen, HT1080 RFP-PRO-GFP cells, GFP/RFP fluorescence | Matrix metalloproteinase-14 (Homo sapiens), P50281 | GFP/RFP ratio fluorescence, overnight; percent of plate control window, DMSO zero | GFP/RFP ratio change, % at 20 µM | 360,000 tested, 0.061% active;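 active means GFP/RFP ratio change of at least 30% with cell ATP level not reduced by more than half and red fluorescence within 50% of control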; further: strong numbers were not always called active
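Material – HT1080 RFP-PRO-GFP cells · Control set – DMSO wells and RFP-L50D-GFP cells · Incubation – overnight cell settling, then overnight compound exposure, 37 °C, 5% CO2 · Compound dosing – single-point 20 µM compound, 1% DMSO · Read-out – GFP/RFP fluorescence ratio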
CSC inhib = cancer stem cell viability inhibitors, primary screen, luminescence; 300,000 tested, 1.1% active; cancer stem cell-like cells viability; inhibition, % at 7.5 µM;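 active means mean at 75% or more and at least half the replicates too; inconclusive means mean and replicates disagree; tested in HMLE shEcad cells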;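 further: 0% = median of negative and 100% = median of positive control wells; the first replicate is given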
Yeast UUG start = modulators of yeast start codon fidelity, primary screen, whole organism, S. cerevisiae, single point, plate reader; AID 602363, 2012; S. cerevisiae UUG-firefly luciferase reporter, luminescence/redox ratio; 350,000 tested, 0.13% active; activity score, % at 18.7 µM;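 active means replicate mean at a twofold rise or more, about +100% in these data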;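 further: firefly luciferase made from a UUG start codon reports start codon fidelity; reporter light over untreated wells divided by growth signal over untreated wells; some hits fall short of that in this replicate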
HIV Env fusion = inhibitors of HIV-1 Env-driven cell-cell fusion, primary screen, HeLa-JRFL effector, CEM21 target cells, luciferase | 360,000 tested, 1.1% active | inhibition, % at 12.3 µM;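 active means mean replicate inhibition score of at least 50 and every replicate individually at or above 50; inconclusive means only one of the two criteria met; inactive means mean below 50 and not all replicates reaching 50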;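 further: 0% = plate neutral controls and 100% = maraviroc near 300 nM; one replicate is shown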
PABP FP inh = PABP poly(A) RNA binding inhibitors, primary screen, biochemical, fluorescence polarization, uHTS | Polyadenylate-binding protein 1 (Homo sapiens), P11940 | inhibition, % at 35 µM | 290,000 tested, 1% active | AID 2014, 2009;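 active means 50% or more with normal probe brightness, or confirmed in later tests; inconclusive means above 50% with abnormal brightness, or retests that disagree; inactive means below 50% or failed in later tests; about a fifth of its hits are not listed in these tables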;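 further: calls also rest on retests at 20 µM and on dose response follow-up; controls were probe without protein and protein plus probe with vehicle; some compounds called inactive have numbers as strong as hits; many hits fall short of the cut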
eIF4H inh retest = recorded beside eIF4H inh, whose call it bears; inhibition, %; compound at 20 µM; confirmation average;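 mean of two retest wells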
PABP FP inh retest = further read-out of PABP FP inh, marked with its call; inhibition, %; compound at 20 µM; confirmation repeats;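 mean of two retest wells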
MT1-MMP act inh RFP = further read-out of MT1-MMP act inh, marked with its call; RFP signal change, %; measured here: RFP expression control read;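 0 = vehicle wells; hits needed this value within 50% of zero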
Starred values were filed as active, the others as inactive; i = inactive; u = inconclusive; x = no result given; & = joins results of further samples. An excerpt (hit frequency here may not be typical).

Sample of the layout (three entries):
SMILES	eIF4H inh	Rce1 inhib	MT1-MMP act inh	MT1-MMP act inh RFP	CSC inhib	Yeast UUG start	HIV Env fusion	PABP FP inh	others
C[C@H](CO)N1C[C@H](C)[C@@H](CN(C)S(=O)(=O)c2ccc(F)cc2)Oc2c(NC(=O)NC3CCCCC3)cccc2C1=O	x	x	-5	-2	-18	12&-3	-11	x
CC1CN(c2nc(-c3ccccc3)nnc2-c2ccccc2)CC(C)O1 (centres undefined)	1	i	-4	-2	8	x	x	3
COc1ccc(N2C(=O)C3CCCN3C2c2ccc(C)o2)cc1 (centres undefined)	-15	i	-1	3	-35	-5	-11	2

This part in full, repeating the preview:
SMILES	eIF4H inh	Rce1 inhib	MT1-MMP act inh	MT1-MMP act inh RFP	CSC inhib	Yeast UUG start	HIV Env fusion	PABP FP inh	others
C[C@H](CO)N1C[C@H](C)[C@@H](CN(C)S(=O)(=O)c2ccc(F)cc2)Oc2c(NC(=O)NC3CCCCC3)cccc2C1=O	x	x	-5	-2	-18	12&-3	-11	x
CC1CN(c2nc(-c3ccccc3)nnc2-c2ccccc2)CC(C)O1 (centres undefined)	1	i	-4	-2	8	x	x	3
COc1ccc(N2C(=O)C3CCCN3C2c2ccc(C)o2)cc1 (centres undefined)	-15	i	-1	3	-35	-5	-11	2
CCOc1ccc(C(=O)Nc2ccccc2C(=O)O)cc1	3	x	1	-1	17	-10	-73	6
Cc1ccc(Nc2nc(-c3cccnc3)cs2)cc1Cl	-7	i	-2	-10	13	-19	-63	6
NC(=O)N1OCC2COc3ccc4ccccc4c3C21 (centres undefined)	u	i	1	5	-15	-17	x	26
COCCNC(=O)CS(=O)Cc1nc(-c2ccccc2C)oc1C (centres undefined)	-1	i	0	3	1	0	x	3
COc1ccc(NS(=O)(=O)c2ccc(C)c(C(=O)N3CC(C)OC(C)C3)c2)cc1 (centres undefined)	x	i	2	0	14	-10	21	x
CC[C@]12c3[nH]c4ccc(OC)cc4c3CCN1C(=O)C(CC(=O)NCCCN(C)C)C[C@@H]2C(=O)N1CCN(C(=O)c2ccco2)CC1 (some centres undefined)	x	x	4	2	x	-21	6	x
COC(=O)C(Cc1ccccc1)NC(=O)CCNC(=O)c1ccc(Br)cc1 (centres undefined)	-4	i	3	1	30	-14	3	16
COC(=O)c1ccc(CSc2ccc3nnc(-c4ccccn4)n3n2)o1	5	i	0	0	-20	-10	16	2
O=C(CCN1CCCCC1)c1ccc2c(c1)OCCO2	-1	i	x	x	x	2	-48	15
O=C(Cn1cncn1)N1CCN(c2ccc(F)cc2)CC1	5	i	-4	4	-22	-14	-4	-2
Cc1ccc(N(CCC#N)C(=O)COC(=O)c2ccccc2SCC(=O)N2CCCC2)cc1	x	i	-1	0	-10	-7	8	x
Nc1[nH]c(=O)[nH]c(=O)c1N=Nc1ccc(C(=O)O)cc1	0	i	5	4	3	-11	6	11
O=C(CCCNC(=O)c1ccc(Cl)cc1)Nc1ccc(Br)cc1	-15	x	2	-1	-14	-3	8	13
CC(C)C[C@H](NC(=O)C1CC(=O)N(c2ccc3c(c2)OCO3)C1)C(=O)NC1CCCC1 (some centres undefined)	u	i	-8	5	-1	-13	0	u
N#Cc1ccc(-c2cccc3nccn23)cc1	x	x	2	2	x	-9	2	x
Cc1c(Br)c([N+](=O)[O-])nn1C(C)C(=O)Nc1c(C)n(C)n(-c2ccccc2)c1=O (centres undefined)	-12	i	6	2	-9	-12	x	-1
CN(C)CCNc1nc2sc3c(c2c(=O)n1-c1ccccc1)CCCCC3	5	i	0	-2	75*	-2	5	8
O=C(Nc1ccccc1)Nc1ccc(Nc2ccccc2)cc1	x	x	7	-1	26	2	-12	x
NC(=S)N/N=C1\CC(c2ccc3c(c2)OCCCO3)Oc2ccc(F)cc21 (centres undefined)	-2	i	-5	-12	17	-22	10	6
CCc1c(Cl)nc(N)nc1Nc1ccccc1C	x	x	5	-10	x	-11	10	x
Fc1ccc2[nH]c3c(N4CCSCC4)ncnc3c2c1	13	i	3	-30	6	-14	x	6
NNC(=O)COc1ncn(-c2ccccc2)n1	-2	i	6	0	-6	-11	x	-3
Continuation.
SMILES	eIF4H inh	Rce1 inhib	MT1-MMP act inh	MT1-MMP act inh RFP	CSC inhib	Yeast UUG start	HIV Env fusion	PABP FP inh	others
CCCCN(C)C(=O)c1sc(=O)n(Cc2ccc(Cl)c(Cl)c2)c1C	x	x	5	-3	x	-14	12	x
O=C(NC1CC2CCC(C1)N2Cc1nnnn1Cc1ccco1)NC12CC3CC(CC(C3)C1)C2 (centres undefined)	34	i	2	-3	x	-14	0	18
COc1ccc(NC(=O)COC(=O)[C@@H]2CCCN2C(=O)c2cccs2)c(OC)c1	-4	i	2	2	-5	11	-81	14
O=C(Nc1nnc(-c2ccc(Cl)cc2)o1)c1ccccc1Br	1	i	8	0	40	-9	-3	14
Cn1c(=O)c2c(ncn2CC(COCc2ccccc2)OCc2ccccc2)n(C)c1=O (centres undefined)	6	i	-2	0	-13	x	2	-4
CCCOc1ccc(N2C(=O)CC(N3CCN(S(=O)(=O)c4ccccc4)CC3)C2=O)cc1 (centres undefined)	2	i	1	5	-15	-15	31	-7
O=C(OCCNC(=O)c1cc2ccccc2oc1=O)c1cccnc1	-6	i	-2	7	x	-23	-13	-5
CCN1C(=O)[C@H]2[C@@H](c3ccc(C(F)(F)F)cc3)N[C@]3(CCCN(Cc4cccn4C)C3=O)[C@H]2C1=O	x	x	-4	1	x	2	-26	x
COCCn1c(C)cc(C(=O)CSc2nc3ccccc3s2)c1C	54	i	-4	-24	-10	-12	-46	-6	eIF4H inh retest=10;PABP FP inh retest=2
CCOC(=O)c1cc(-c2cc(OC)c(OC)c(OC)c2)nc2c1c(=O)[nH]c(=O)n2Cc1ccccc1	0	i	9	8	9	x	16	-1
O=C(Cc1cccs1)NCc1cccnc1	7	i	2	8	10	-10	-42	4
COc1ccccc1CNc1nc(NC(C)C)nc2cc(-c3ccccc3)sc12	x	x	13	-5	x	-3	-13	x
COc1cc(CNC2CCCCCCC2)cc(Br)c1OCC#N	8	i	0	-3	35	x	-13	-1
O=c1[nH]c(CN2CCN(C/C=C/c3ccccc3)CC2)nc2cc(Cl)ccc12	-6	i	3	0	-12	-11	9	-3
NC(=NC(=O)c1cccc(C(F)(F)F)c1)c1ccc(C(F)(F)F)cn1	0	i	0	-1	-8	-19	-87	-6
CCCC(C)NC(=O)c1ccccc1SC (centres undefined)	5	i	1	2	-12	x	-13	2
O=[N+]([O-])c1ccc(OCn2cncn2)cc1	x	i	-4	-3	-16	-10	-32	x
O=C(CCCN1C(=O)/C(=C\c2ccccc2)SC1=S)Nc1ccccc1O	-11	i	7	2	42	x	24	4
CC(C)(C)c1ccc(C2(C)NC(=O)N(CC(=O)Nc3ccc4c(c3)OCO4)C2=O)cc1 (centres undefined)	0	i	-1	-1	-1	-14	-32	0
Cc1ccc(NC(=O)CSc2nnc(-c3ccc(S(=O)(=O)N4CCOCC4)cc3)n2C)cc1	-9	i	-3	-4	1	10	7	6
CC(C)(C)c1ccc(C(=O)Nc2ccc(C(=O)N3CCCC3)cc2)cc1	-11	i	1	-4	-4	3	x	1
O=C(Nc1nccs1)c1cnc2sccn2c1=O	x	x	0	4	x	-15	-57	x
COc1ccc2nc(NC(=O)CSC3=NCCS3)sc2c1	-12	i	2	-5	-15	-8	x	-18
COc1ccc(OC)c(NC(=O)C(=O)/C=C(\O)c2cc(OC)ccc2OC)c1	11	x	3	4	-4	-4	-25	0
Cc1cc(C)nc(Nc2nc(C(N)Cc3ccccc3)cs2)n1 (centres undefined)	x	x	7	-2	x	-22	-103	x

Grouped by structure, those above containing a tert-butyl group
SMILES	eIF4H inh	Rce1 inhib	MT1-MMP act inh	MT1-MMP act inh RFP	CSC inhib	Yeast UUG start	HIV Env fusion	PABP FP inh	others
CC(C)(C)c1ccc(C2(C)NC(=O)N(CC(=O)Nc3ccc4c(c3)OCO4)C2=O)cc1 (centres undefined)	0	i	-1	-1	-1	-14	-32	0
CC(C)(C)c1ccc(C(=O)Nc2ccc(C(=O)N3CCCC3)cc2)cc1	-11	i	1	-4	-4	3	x	1

The list continues:
SMILES	eIF4H inh	Rce1 inhib	MT1-MMP act inh	MT1-MMP act inh RFP	CSC inhib	Yeast UUG start	HIV Env fusion	PABP FP inh	others
Nc1cc(=O)[nH]c(SCCSc2ccc(F)cc2)n1	0	i	3	-4	1	-21	66*	-1
Cc1ccc(C)c2[nH]c(=O)c(CCNC(=O)c3cccs3)cc12	-7	i	-3	-1	2	-1	-12	2
CN(C)CC/C=C1/c2cc(F)ccc2Sc2ccc(Cl)cc21	x	i	-2	-3	-3	9	18	x
NC(=O)NC(=O)COC(=O)/C=C/c1cccs1	-1	i	0	-1	-3	-13	-1	-14
COc1ccc(CC(=O)NNC(=O)c2ccco2)cc1OC	-8	i	2	2	x	x	7	-2
COc1ccc(CCn2ccc(O)c(Cc3ccc(Cl)cc3Cl)c2=O)cc1OC	-13	i	-1	1	3	x	13	5
O=S(=O)(c1ccccc1)n1nc(-c2ccccc2)nc1NCc1ccco1	-8	i	1	0	-2	8	x	-6
O=C1[C@@H]2C(c3cccnc3)=NO[C@@H]2C(=O)N1c1ccc(Br)cc1	-3	x	-1	0	5	-17	2	-7
CC(C)Oc1ccc(C(CC(=O)O)c2ccc(F)cc2)cc1 (centres undefined)	-3	i	4	4	-14	-1	10	5
CCCc1ccc(C(=O)Cn2nc(C(=O)O)c3ccccc3c2=O)cc1	-2	i	0	-7	-7	x	16	-5
CCOc1ccc(/C=N/NC(=O)C(C)N(c2ccc(OC)cc2)S(C)(=O)=O)cc1 (centres undefined)	-1	i	5	5	-1	4	x	23
CN(C)/C=N/NC(=O)c1ccccc1	-15	i	3	2	7	-2	6	2
CC(OC(=O)/C=C/c1ccco1)C(=O)NC1CCCCC1 (centres undefined)	x	x	6	-4	x	-20	-1	x
Cc1cccc(Oc2nc(-c3ccccn3)nc3ccccc23)c1	2	i	-10	-12	11	-25	1	-6
O=c1cc(-c2ccc(Cl)cc2)[nH]c2ccccc12	-7	x	x	x	3	x	x	-5
O=c1c2ccccc2nc(-c2ccccc2)n1/N=C/c1ccc([N+](=O)[O-])cc1	-2	i	4	5	-9	-6	-81	20

At a glance, part of the list above:
SMILES	eIF4H inh	Rce1 inhib	MT1-MMP act inh	MT1-MMP act inh RFP	CSC inhib	Yeast UUG start	HIV Env fusion	PABP FP inh	others
O=c1cc(-c2ccc(Cl)cc2)[nH]c2ccccc12	-7	x	x	x	3	x	x	-5
O=c1c2ccccc2nc(-c2ccccc2)n1/N=C/c1ccc([N+](=O)[O-])cc1	-2	i	4	5	-9	-6	-81	20

Compound activity from PubChem BioAssay.
